NPYLR7 ag: mosquito NPYLR7 agonism. HEK293T NPYLR7/Galpha15, GCaMP6s calcium fluorescence. actives 0.15% (n = 270,000). activation, % at 10 µM; in the data active means activation above about 40%;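 further: 0% = vehicle and 100% = reference agonist at the receptor; some compounds past the cut are filed as inactive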
NPYLR7 ag max-min: also measured in NPYLR7 ag; calls as there; activation, %; measured here: Max-Min RFU normalised activation; some inactives read as strong as hits;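 span of the calcium signal over five minutes; 0% = vehicle and 100% = native peptide agonist; compound fluorescence can raise it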
An asterisk follows results filed as active; & = joins results of further samples.

SMILES | NPYLR7 ag | NPYLR7 ag max-min
COc1ccc(OCCSCc2nc3sc4c(c3c(=O)[nH]2)CCC(C)C4)cc1 (stereo not given) | -2.3 | -5.4
Cc1ccnc(SCc2cc(=O)c(OC(=O)COc3ccccc3F)co2)n1 | -10.9 | -8.3
CC(C)N(C)S(=O)(=O)NCCC(c1ccccc1)c1ccccc1 | 3.9 | 4.2
CC1(C)CC(=O)C2=C(C1)OC(=N)C(C#N)C2c1ccc(Br)cc1 (stereo not given) | 14.6 | 7.4
O=C(CN1CCOC1=O)N1CCCC(OCc2ccccc2)C1 (stereo not given) | 22.1 | 4.1
CCC(CC)n1ncc(C)c1NC(=O)CC1CCC(=O)N1 (stereo not given) | -0.3 | 0.5
Nc1nc(CNC(=O)CC(c2ccccc2)c2ccco2)cs1 (stereo not given) | 25.2 | 11.4
O=C([C@@H]1CCCN1C(=O)OCc1ccccc1)N1CCCC1 | 1.3 | -0.2
O=C(N1CCCC1)C1(S(=O)(=O)c2ccc(Cl)cc2)CC1 | 7.7 | 1.3
Clc1ccccc1CSc1nnc(-c2ccc3c(c2)OCO3)o1 | 9.6 | 7.3
CCc1ccc(CN(C)C(=O)c2cc(=O)n(C)c(=O)n2C)nc1 | -3.6 | -3.8
CCN(CC)c1ccc(C=C2C(=O)NC(=O)N(C)C2=O)cc1 | 0.0 | 19.2
CCS(=O)C1CCCCC1NC(=O)Nc1ccc(NC(=O)C2CC2)cc1 (stereo not given) | 6.3 | 3.0
CCNC(=S)N1CCc2cc(OC)c(OC)cc2C1CNC(=O)Cc1ccccc1 (stereo not given) | -31.6 | -24.5
CC(=O)NCC1=CCCN(CC(=O)N2C[C@@H](C)O[C@@H](C)C2)C1 | 28.4 | 17.9
CC(=O)NCCn1ccnc1-c1ncc[nH]1 | -0.4 | 17.5
O=C(c1ccccc1)C1CCCN(C(=O)c2cn(Cc3c(F)cccc3F)nn2)C1 (stereo not given) | 9.8 | 4.3
Cc1ccc(-n2nc(C(=O)NCc3ccccn3)c(=O)n(Cc3ccccc3)c2=O)cc1Cl | -3.8 | 1.7
Cc1nc(C(C)C)sc1CNC(=O)c1cnc(N2CCOCC2)nc1 | 5.3 | 4.8
OC=c1ccc2cccc3nc(C(F)(F)F)nc1c23 | 76.8* | 76.4*
CCOC(=O)c1c(CN2CCN(c3ccccc3C)CC2)n(-c2ccccc2)c2cc(Br)c(OC(C)=O)cc12 | -0.4 | -3.0
COc1ccc(C)cc1S(=O)(=O)NCCOc1ccc2nnc(-c3ccccc3)n2n1 | 14.3 | 9.1
O=S(=O)(/C=C/c1ccccc1)Nc1ccc(Cl)cc1F | -3.9 | -4.2
Cc1nc(NCCNS(=O)(=O)c2ccc(F)cc2)cc(N2CCOCC2)n1 | 9.9 | 6.1
O=C(CSC1=NS(=O)(=O)c2ccccc2N1)Nc1nccs1 | 10.4 | 5.4
CSc1ncc(CN2CCN(c3cc(C)cc(C)c3)C(=O)C2)cn1 | 20.9 | 7.5
CN(Cc1ccncn1)c1nccc(CCC(F)(F)F)n1 | 20.5 | 7.8
CCOC(=O)c1cc(C2CC2)n(-c2ccc(C(=O)NC(C)CCCN(CC)CC)cc2)n1 (stereo not given) | -2.9 | -14.5
O=C(CSc1nc2c(-c3ccccc3)c[nH]c2c(=O)[nH]1)Nc1cccc(F)c1 | -4.8 | -11.1
O=C1N=c2ccccc2=C1c1sc(=S)n(NC(=O)c2ccccc2)c1O | -6.2 | -11.4

Copied from the list:
Clc1ccccc1CSc1nnc(-c2ccc3c(c2)OCO3)o1 @ NPYLR7 ag max-min: 7.3
CCOC(=O)c1cc(C2CC2)n(-c2ccc(C(=O)NC(C)CCCN(CC)CC)cc2)n1 (stereo not given) @ NPYLR7 ag: -2.9
O=C(CSc1nc2c(-c3ccccc3)c[nH]c2c(=O)[nH]1)Nc1cccc(F)c1 @ NPYLR7 ag max-min: -11.1

Already shown: 7 of the compounds above.
SMILES | NPYLR7 ag | NPYLR7 ag max-min
Cc1ccc(-n2nc(C(=O)NCc3ccccn3)c(=O)n(Cc3ccccc3)c2=O)cc1Cl | -3.8 | 1.7
Cc1nc(C(C)C)sc1CNC(=O)c1cnc(N2CCOCC2)nc1 | 5.3 | 4.8
OC=c1ccc2cccc3nc(C(F)(F)F)nc1c23 | 76.8* | 76.4*
CCOC(=O)c1c(CN2CCN(c3ccccc3C)CC2)n(-c2ccccc2)c2cc(Br)c(OC(C)=O)cc12 | -0.4 | -3.0
COc1ccc(C)cc1S(=O)(=O)NCCOc1ccc2nnc(-c3ccccc3)n2n1 | 14.3 | 9.1
O=S(=O)(/C=C/c1ccccc1)Nc1ccc(Cl)cc1F | -3.9 | -4.2
Cc1nc(NCCNS(=O)(=O)c2ccc(F)cc2)cc(N2CCOCC2)n1 | 9.9 | 6.1

Carrying on:
SMILES | NPYLR7 ag | NPYLR7 ag max-min
Nc1cc(N)nc(SCC(=O)NC(=O)NC2CCCC2)n1 | -1.1 | 4.1
Cc1ccccc1NC(=O)c1ccc(CN2CCNC(=O)C2)cc1 | -3.4 | -2.7
COc1ccc(CCN(C)Cc2cnc(S(C)(=O)=O)n2CC2CCCO2)cc1OC (stereo not given) | 2.0 | 1.2
O=C(Nc1cc2c(cc1C(=O)O)OCCO2)c1ccccc1F | 9.6 | 9.6
COc1cccc(Cc2nsc(N3CCC(CNC(=O)CCCCl)CC3)n2)c1 | -0.8 | 4.2
CC(C)c1nc2ccccc2c2c1C(=O)N(Cc1ccc3ccccc3c1-c1ccccc1)C2=O | -5.9 | -10.4
NC(=O)c1ccccc1NCc1cc(Cl)cc2c1OCOC2 | 8.2 | 5.9
O=C(c1csc(COc2cccc(F)c2)n1)N1CCCC1 | -5.2 | -0.8
O=C(COc1ncnc2ccccc12)NC12CC3CC(CC(C3)C1)C2 | 0.2 | -1.4
O=C(NC1CCS(=O)(=O)C1)C1CCCC1 (stereo not given) | -0.3 | 32.4
CC(C(=O)N(C)C)N(C)Cc1cc(C(C)(C)C)ccc1O (stereo not given) | 14.2 | 15.3
CCCCCNc1ccc(NC(=O)c2ccc(C3CCC(CCCCC)CC3)cc2)c2c1C(=O)c1ccccc1C2=O (stereo not given) | -20.8 | -17.4
CCN1CCN(c2c(CN(CCOC)C(=O)COc3ccccc3)c(C)nn2-c2ccccc2)CC1 | 8.1 | 15.0
O=C(NCCC1CC2CCC1C2)c1c[nH]c2ccccc2c1=O (stereo not given) | 4.4 | 3.1
CC1(C)CC(=O)C=C(NCCCn2ccnc2)C1 | 1.1 | -1.5
Cc1ccc(N=Cc2nc(-c3ccco3)oc2O)cc1 | -7.9 | -14.5
CN(Cc1nc2ccccc2n1C)C(=O)[C@H]1CCCO1 | 7.3 | 3.9
CCN(CC)CCN(C(=O)c1ccc([N+](=O)[O-])o1)c1nc2ccccc2s1 | -4.6 | -9.5
CS(=O)(=O)c1ccc(NC(=O)C2(c3ccc(F)cc3)CCCC2)cn1 | -6.9&0.2 | -9.6&14.2
CC(=O)Nc1ccc(Cl)c(C(=O)NCCCOc2ccccc2)c1 | 5.4 | 3.0
COc1cccc2cc(C(=O)NC3CCC(C)CC3)c(=O)oc12 (stereo not given) | 0.2 | -2.7
CC(CO)NC(=O)c1ccc(NCc2ccc(Cl)s2)cc1 (stereo not given) | 6.4 | -3.2
Cc1ccc(NC(=O)CCNC(=O)c2cccc3ccnn23)cc1 | 4.6 | 2.1
CC1(C)N=C(c2ccccc2)C(=S)N1C(=O)c1ccccc1 | -0.9 | -3.7
C=CCNC(=O)c1ccc(N2CCS(=O)CC2)nc1 | -2.0 | -2.7
Cc1cc(C(=O)N(C)CCC#N)ccc1I | 1.7 | -2.2
O=C(c1ccccc1N1CCC(NS(=O)(=O)c2ccc(Cl)cc2)CC1)N1CCOCC1 | 15.6 | 13.5
COCc1cn(C2CCN(CCC(C)c3ccccc3)CC2)nn1 (stereo not given) | 0.8 | -0.7
CN(C)c1cccc(C(=O)Nc2cnn(CC(F)F)c2)c1 | 4.0 | 1.2
Cc1ccc(C)c(Sc2ncccc2C(=O)N2CCNC(=O)C2)c1 | -1.2 | -2.2
CC(NC(=O)c1ccc(-c2cc(-c3ccccc3)n[nH]2)cc1)c1ccccc1 (stereo not given) | 5.7 | -3.7
CCN1C(=O)N(c2cc(C)ccc2C)C2CS(=O)(=O)CC21 (stereo not given) | 1.4 | 1.8
COc1cc(CC(=O)N2CCOC(COc3ccc4c(c3)CCCC4)C2)cc(OC)c1OC (stereo not given) | 19.3 | 27.8
CCC1=NOC(CNC(=O)c2cc3cc(C)ccc3o2)C1 (stereo not given) | 5.6 | 3.1
CC1CCC2C(=O)NC(=O)C2C1 (stereo not given) | -2.5 | -1.9
CCOc1ccnc(NCCN2CCOCC2)n1 | 6.4 | 2.4
Cc1ccc(C(O)CN(C)c2ccc(F)c(F)c2)cc1 (stereo not given) | -2.2&-1.4 | -3.0&2.4
O=C1c2ccccc2C(=O)C1(Cl)[N+](=O)[O-] | -8.8 | -13.6
CC(=O)Nc1ccc(CN2CCN(C(C)C)C(C)C2)cc1 (stereo not given) | 6.2 | 3.4
Cc1nc2cc(C(F)(F)F)ccc2n1C1CCN(C(=O)c2cccc(C#N)c2)CC1 | -5.6 | -10.9
Cn1cc(/C=C/C(=O)N2CCCC(N3CCN(c4ccccc4F)CC3)C2)cn1 (stereo not given) | 3.7 | 0.0
Cc1cc(F)ccc1NCC(=O)N1c2ccccc2NC(=O)CC1C (stereo not given) | -0.9 | -2.9
Cc1ncsc1CCOC(=O)CC1C2CC3CC(C2)CC1C3 (stereo not given) | -4.7 | -8.2
Fc1ccc(-c2nc3c(N4CCOCC4)nccc3[nH]2)cc1F | -4.3 | -8.9
Cc1c(C(=O)NC(C)(C)CO)c(C(F)(F)F)nn1C1CCCN(C(C)C)C1 (stereo not given) | 11.1 | 4.5
Cc1sc2nc(SCC(=O)Nc3nccs3)n(Cc3ccco3)c(=O)c2c1C | 4.0 | 4.5
CCc1nc2ccc(C(=O)NC3CCN(Cc4ccccc4)CC3)cn2c1N(C)Cc1ccc(OC)cc1 | 10.0 | 2.2
O=C1c2ccccc2NC2(CCCC2)N1CC(F)(F)F | -3.9 | -3.2
COc1coc(CN2CCCC(CCc3ccccc3C)C2)cc1=O (stereo not given) | 6.7 | 6.2
COc1cc(CN(C)Cc2nc3ccccc3n2C)cc(F)c1O | 1.0 | 27.3
COC(=O)C1=C(C)N(C)C(=O)NC1c1ccc([N+](=O)[O-])cc1 (stereo not given) | 5.3 | 4.2
COc1ccc(C)cc1CC(=O)Nc1cc(Cl)ccc1F | 3.0 | 4.8
CCOc1ccc(C(=O)Nc2ccc(Nc3cc(-n4ccnc4)ncn3)cc2)cc1OCC | -2.3 | -5.7
NC(=O)c1cccc(OCCOc2ccc(F)cc2)c1 | 2.1 | 2.7
COc1ccc(S(=O)(=O)Nc2ccccc2C(=O)NC2CCCCC2)cc1OC | 0.4 | 2.1
CCOc1cc(C(=O)Nc2ccc(N3CCN(C)CC3)nc2)cc(OCC)c1OCC | -0.2 | 3.6
CC(C)c1csc(C(=O)N2CCC3(CC2)CN(C)CCN3C)n1 | 6.3 | 2.4
CCn1c(C2CC2)nn(CN2CCc3cc(OC)c(OC)cc3C2)c1=S | 9.6 | 13.0
Cn1cc(NC(=O)C2CCN(c3ccc(F)cc3)C2=O)ccc1=O (stereo not given) | 2.0 | -0.4
O=C(Nc1ccccc1)Nc1ccc(NC(=O)C2CC(=O)N(c3ccc4c(c3)OCCO4)C2)cc1 (stereo not given) | 4.5 | 3.1

Given with two lines to a compound: entries from further up.
Fields: NPYLR7 ag | NPYLR7 ag max-min
- COc1cc(CN(C)Cc2nc3ccccc3n2C)cc(F)c1O
  1.0 | 27.3
- Cc1sc2nc(SCC(=O)Nc3nccs3)n(Cc3ccco3)c(=O)c2c1C
  4.0 | 4.5
- COc1coc(CN2CCCC(CCc3ccccc3C)C2)cc1=O (stereo not given)
  6.7 | 6.2
- COc1ccc(S(=O)(=O)Nc2ccccc2C(=O)NC2CCCCC2)cc1OC
  0.4 | 2.1
- NC(=O)c1cccc(OCCOc2ccc(F)cc2)c1
  2.1 | 2.7
- CCn1c(C2CC2)nn(CN2CCc3cc(OC)c(OC)cc3C2)c1=S
  9.6 | 13.0

New compounds follow:
SMILES | NPYLR7 ag | NPYLR7 ag max-min
Cc1ccn2c3c(nc2c1)CNC(=O)CC3c1ccc(C(=O)O)s1 (stereo not given) | 2.1 | -0.3
Fc1cc(F)c2c(c1)C1C=CCC1C(c1ccncc1)N2 (stereo not given) | 10.9 | 11.4
COc1ccc(-c2nc(N3CCN(C(=O)Cc4ccc(F)cc4)CC3)c3ccccc3n2)cc1 | 16.1 | 22.8
CCCCCCn1c(SCC=C(C)Cl)nc2c1c(=O)[nH]c(=O)n2C | 2.1 | 2.0
CCOC(=O)c1cnn2cc(CN(C)C3CCCc4ccccc43)cnc12 (stereo not given) | 0.6 | -7.1
CN(Cc1ccccn1)C(=O)c1ccc2oc(Cc3ccc(Cl)cc3)nc2c1 | 12.8 | 4.7
Cc1ccc(NC(=O)N(Cc2csc(COc3ccccc3C(C)C)n2)CC(C)C)cc1 | 12.5 | 26.9
CCN(CC(=O)Nc1cc(-c2ccccc2)nn1-c1ccc(F)cc1)C(=O)Nc1ccc(OC)cc1 | 0.6 | 10.4
COc1cccc(N2CCN(C(=O)CN3CCCN(C)CC3)C(C)C2=O)c1 (stereo not given) | 11.4 | 9.2
Cc1ccc(N2C(=O)CSC2c2ccccn2)cc1C (stereo not given) | -5.8 | -11.0
CCCn1c(SC(C)C#N)nnc1-c1ccncc1 (stereo not given) | 13.0 | 4.6
CCn1c(SCc2ccccc2)nc2c([nH]c3ccccc32)c1=O | 2.7 | 1.5
C=CCOCC(O)CN(CCCOC)Cc1ccc(OC)cc1 (stereo not given) | 25.8 | 33.4
O=C(CSc1ncccn1)OCc1cc(-c2ccc3c(c2)OCCO3)on1 | 0.5 | -1.1
COc1ccc(N=CC(C#N)c2nc3ccccc3n2C)c(OC)c1 (stereo not given) | 3.4 | -2.4
Cc1ccc(Nc2cc(C)nc3c(-c4ccccc4)c(C)nn23)cc1 | -1.8 | -2.8
CC(C)CNC(=O)C1(C)CCCN1C(=O)c1ccncc1 (stereo not given) | -7.7 | -7.0
Cc1cc(C(=O)N(C)Cc2c(C)noc2C)c2cccc(C)c2n1 | 9.1 | 7.2
COC(=O)CCC(=O)Nc1cccc(-c2cccc(-c3ccc4c(c3)NC(=O)CO4)n2)c1 | -6.1 | -7.8

An excerpt; rates above refer to the full screens.
